Screening data (PubChem)
B2AR ag: beta2AR agonists driving receptor internalization, primary screen, cell-based, FAP fluorogen, flow cytometry; Beta-2 adrenergic receptor (Homo sapiens), P07550; Am2.2-beta2AR cells; reference of the scale not given here; response, % (no concentration beside the values); 0.43% of 340,000 active; AID 504454, 2011;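 active = response above a set limit, near 3 SD of response in nonfluorescent compounds, cut at about 42% in these data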;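 also: stock transfer was 100 nL into about 11 µL; a reference agonist was the positive control; negative values mostly stem from fluorescent compounds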
ALR H2O2 inh: inhibitors of human ALR sulfhydryl oxidase, primary screen, biochemical, H2O2 detection, HRP-luminol luminescence, single point. FAD-linked sulfhydryl oxidase ALR (Homo sapiens), P55789. purified ALR, DTT oxidation. inhibition, % (no concentration beside the values). 3.8% of 290,000 active. AID 485317, 2010;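 active = mean and each replicate at 75% or more; inconclusive = only one of the two met; inactive = neither met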;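 also: stock transfer was 7.5 nL into about 7.5 µL; 0% = neutral wells and 100% = wells with inactivated enzyme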
Target sequence (P55789 whole entry, looked up): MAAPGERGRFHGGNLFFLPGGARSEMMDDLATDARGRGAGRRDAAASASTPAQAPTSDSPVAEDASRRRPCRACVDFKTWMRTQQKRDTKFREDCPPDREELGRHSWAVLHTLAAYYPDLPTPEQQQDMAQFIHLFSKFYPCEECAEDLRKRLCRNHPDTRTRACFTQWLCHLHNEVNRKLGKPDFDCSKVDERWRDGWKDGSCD
HNF4A DNA FP: change in binding of human HNF4A to DNA, primary screen, biochemical, fluorescence polarization, FITC-DNA. Hepatocyte nuclear factor 4-alpha (Homo sapiens), P41235. 1 h. activity change, % at 10 µM. 0.3% of 360,000 active. AID 1224865, 2016; in the data active = activity change above about 30%, passing the limit was not always enough;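 also: controls were the assay level and a saturating level of protein; the project sought stronger binding though the title names inhibitors; some compounds called inactive have numbers as strong as hits; positive values seem to mean higher polarization but the record does not say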
Target sequence (P41235 whole entry, looked up): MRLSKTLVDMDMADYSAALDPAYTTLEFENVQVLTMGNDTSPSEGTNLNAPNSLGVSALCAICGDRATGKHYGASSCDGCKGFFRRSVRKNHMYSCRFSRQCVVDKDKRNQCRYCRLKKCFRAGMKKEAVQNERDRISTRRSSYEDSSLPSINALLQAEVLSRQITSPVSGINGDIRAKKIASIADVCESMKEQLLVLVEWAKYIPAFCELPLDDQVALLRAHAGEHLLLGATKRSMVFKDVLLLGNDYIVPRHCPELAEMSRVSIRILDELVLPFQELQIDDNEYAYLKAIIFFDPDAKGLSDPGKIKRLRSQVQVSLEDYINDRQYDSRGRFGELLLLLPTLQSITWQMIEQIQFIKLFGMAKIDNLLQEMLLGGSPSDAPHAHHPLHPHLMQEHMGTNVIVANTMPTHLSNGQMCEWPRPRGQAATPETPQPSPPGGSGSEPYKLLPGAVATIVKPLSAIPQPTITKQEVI
Ecoli rRNA inh: reduced GFP signal of wild-type E. coli, primary screen, bacterial rRNA inhibitor project, GFP/RFP fluorescence, OD600, single point; E. coli WT GFP vs humanized-ribosome RFP mutants, 24 h; active compounds read low; DMSO median 0, no signal -100; GFP signal change (wild-type ribosome), % (no concentration beside the values); 1.6% of 350,000 active; AID 720706, 2013;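 active = significant combined selectivity score with lowered wild-type GFP, culture density cut under 30%, mutant RFP and density less affected; inactive = any of these conditions unmet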; also: one replicate is shown; some compounds called inactive have numbers as strong as hits
E coli growth: E. coli growth inhibition, primary screen, OD600 | Escherichia coli growth, 23 h; active compounds read low | AID 1053175, 2014 | OD600 absorbance (test concentration not listed) | 0.21% of 330,000 active;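 active = OD600 absorbance below the run mean of sample wells minus 3.6 SD, in any replicate, cut at about 0.56 in these data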;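 also: stock transfer was 300 nL into about 60 µL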
FGF22 binding: binders of human FGF22 protein, primary screen, FGF22 synaptogenesis inhibitor project, biophysical, thermal shift, single point | Fibroblast growth factor 22 (Homo sapiens), Q9HCT0 | recombinant FGF22 thermal shift, SYPRO orange fluorescence; percent of sucrose octasulfate shift, DMSO zero | calls only at 9.99 µM | 1.5% of 340,000 active | AID 651658, 2012;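 active = melting point raised past a set limit in the mean and every replicate; inconclusive = no clear call; three in four hits are not shown here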
UCH37 inh: inhibitors of human UCH37 deubiquitinase, primary screen, biochemical, Ub-AMC cleavage, fluorescence. Ubiquitin carboxyl-terminal hydrolase isozyme L5 (Homo sapiens), Q9Y5K5. purified proteasome/UCH37. inhibition, % (test concentration not listed). 0.33% of 330,000 active. AID 588478, 2011;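 active = mean of two replicates above 20%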;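 also: 0% = compound-free wells with enzyme and 100% = wells lacking proteasome; stock transfer was 100 nL into about 20 µL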
Target sequence (Q9Y5K5 whole entry, looked up): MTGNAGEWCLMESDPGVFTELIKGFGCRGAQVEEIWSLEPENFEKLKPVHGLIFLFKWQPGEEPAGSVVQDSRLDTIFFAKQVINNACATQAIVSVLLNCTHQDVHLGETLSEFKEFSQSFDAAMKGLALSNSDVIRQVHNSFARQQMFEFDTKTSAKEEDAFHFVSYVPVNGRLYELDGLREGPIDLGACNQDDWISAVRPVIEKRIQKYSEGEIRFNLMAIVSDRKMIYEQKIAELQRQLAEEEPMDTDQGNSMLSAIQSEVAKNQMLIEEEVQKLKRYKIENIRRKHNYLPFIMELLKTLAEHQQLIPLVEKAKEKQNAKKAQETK
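Schedule: 30 min plus 25 min, room temperature / Material: human UCH37 within purified proteasomes / Technique: AMC fluorescence intensity at 355/460 nm / Buffer or medium: pH 7.4 Tris-HCl (50 mM) with ovalbumin, ATP-MgCl2, DTT / Controls: wells without proteasome as full block, compound-free enzyme plus substrate as uninhibited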
Ecoli rRNA inh OD600: recorded beside Ecoli rRNA inh, whose call it bears; OD600 change, %; measured here: OD600 growth;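 optical density of the mix in the first replicate; 0 = DMSO median and -100 = no signal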
Ecoli rRNA inh RFP: also measured in Ecoli rRNA inh; calls as there; RFP signal change, %; measured here: RFP humanized mutant strains;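 first replicate; 0 = DMSO median and -100 = no signal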
The depositor's hits bear a star; i = inactive; ? = inconclusive; . = not tested or not shown.

SMILES | B2AR ag | ALR H2O2 inh | HNF4A DNA FP | Ecoli rRNA inh | Ecoli rRNA inh OD600 | Ecoli rRNA inh RFP | E coli growth | FGF22 binding | UCH37 inh
COc1ccc(-n2c(CCc3ccccc3)nnc2SCC(=O)NCc2ccccc2)cc1 | -9 | -2 | 2.9 | . | . | . | 0.67 | . | -0.3
Cc1ccc(OCC(=O)OCC(=O)c2ccccc2)cc1C | 3 | 1 | -1.4 | -1 | 0 | -1.6 | 0.7 | i | 2.5
Cc1cccn2c(=O)c(/C=C(\C#N)S(=O)(=O)c3ccccc3)c(N3CCN(c4ccccc4)CC3)nc12 | 5 | 2 | 3.7 | 3 | 6 | -1.3 | 0.74 | i | -4.4
CC[C@](C)(O)c1cc2ccccc2c(=O)o1 | 0 | -8 | 3.8 | 23 | 17 | 0.5 | 0.64 | i | 5.9
COc1cc(NC(=O)C2CCCO2)c(OC)cc1NC(=O)c1ccccc1 (configuration not stated) | 6 | -15 | -2.0 | . | . | . | 0.75 | . | 4.3
CCn1c(-c2ccccc2)csc1=Nc1ccc(S(=O)(=O)O)cc1 | -11 | 5 | 1.7 | 7 | 6 | 2.4 | 0.7 | i | 6.3
CC(=O)NCc1ccc(-c2nc3ccccc3s2)cc1 | -5 | -5 | -0.5 | -9 | -11 | 2.8 | 0.68 | i | -0.5
Cc1cc(=O)oc2cc(OCC(=O)N3CCCC3)c(Cl)cc12 | 0 | 0 | 1.2 | 8 | 8 | -1.8 | 0.71 | i | -130
COc1ccc(/C=C2\Sc3ccc(C(=O)N4CCCC4)cc3N(C)C2=O)cc1OC | 3 | -6 | -0.8 | . | . | . | 0.62 | . | 3.9
CN(C)C(=O)CN1C(=O)C2CCCCN2C(=O)c2ccccc21 (configuration not stated) | 7 | -3 | 0.9 | . | . | . | 0.7 | . | -1.0
CCC(C)N(C(=O)COC(=O)CSc1ccc([N+](=O)[O-])cc1)C1CCS(=O)(=O)C1 (configuration not stated) | 1 | 62 | 1.7 | 26 | 11 | -4.5 | . | i | .
CCc1cccc(OCCn2ccnc2)c1 | -5 | . | -0.9 | . | . | . | 0.67 | . | 1.5
CC(C)C[C@H]1CN(CCCC[C@@H]2CNC(=O)C(=O)N2CC2CCCCC2)C(=O)C(=O)N1CCC1CCCCC1 | . | . | 0.1 | -4 | 16 | -1.6 | . | i | .
C[C@@H]1COC(=O)[C@@H](Cc2ccc(F)cc2)C/C=C\C[C@@H](CC(=O)NCCO)C(=O)N1 | -9 | 3 | 2.0 | 3 | 6 | -2.5 | 0.71 | i | 1.6
COc1cccc(NC(=S)N2CCN(c3ccc([N+](=O)[O-])cc3)CC2)c1 | -17 | -23 | 3.1 | . | . | . | 0.74 | . | 6.1
Cc1c([N+](=O)[O-])c([N+](=O)[O-])nn1CC(=O)N1CCCCC1 | 6 | . | 0.1 | 10 | 6 | -0.5 | 0.65 | i | 1.9
CC1CCCN(C(=S)SCC(=O)c2cc(Br)cc(Br)c2O)C1 (configuration not stated) | 9 | ? | 7.8 | . | . | . | 0.77 | . | 0.2
O=C1CC(Nc2ccc(N3CCOCC3)cc2)C(=O)N1Cc1ccccc1 (configuration not stated) | -6 | 98* | 1.0 | . | . | . | 0.74 | . | 2.6
CC(=O)N1N=C(c2cccc([N+](=O)[O-])c2)OC1(C)CC(=O)Nc1ccccc1 (configuration not stated) | 4 | -6 | -2.1 | 20 | -4 | 4.9 | 0.72 | i | 2.9
O=C(/C=C/c1ccc2c(c1)OCO2)NCCSCc1ccc(Cl)cc1Cl | 96* | . | 0.4 | . | . | . | 0.69 | . | -2.2

Two successive entries already listed, quoted:
SMILES | B2AR ag | ALR H2O2 inh | HNF4A DNA FP | Ecoli rRNA inh | Ecoli rRNA inh OD600 | Ecoli rRNA inh RFP | E coli growth | FGF22 binding | UCH37 inh
CCC(C)N(C(=O)COC(=O)CSc1ccc([N+](=O)[O-])cc1)C1CCS(=O)(=O)C1 (configuration not stated) | 1 | 62 | 1.7 | 26 | 11 | -4.5 | . | i | .
CCc1cccc(OCCn2ccnc2)c1 | -5 | . | -0.9 | . | . | . | 0.67 | . | 1.5

(continued)
SMILES | B2AR ag | ALR H2O2 inh | HNF4A DNA FP | Ecoli rRNA inh | Ecoli rRNA inh OD600 | Ecoli rRNA inh RFP | E coli growth | FGF22 binding | UCH37 inh
COc1ccc(OC)c(NC(=O)c2ccc(-c3cccs3)cc2)c1 | -9 | -8 | -1.0 | . | . | . | 0.72 | . | -0.3
COc1ccc(NC(=O)CSc2ncccn2)cc1S(=O)(=O)N1CCCCC1 | -3 | -3 | -1.3 | -7 | -9 | 2.8 | 0.64 | i | 2.3
Cc1ccc(CN2CC[C@H]3C=CCc4cccc(c43)C2)cc1 | . | -12 | -0.7 | 0 | -3 | -5.4 | . | i | 4.7
COCCCNC(=O)CN1C(=O)COc2ccc(S(=O)(=O)N3CC(C)CC(C)C3)cc21 (configuration not stated) | -1 | 2 | -1.8 | 1 | 5 | 0.4 | 0.72 | i | 2.1
O=C(COC(=O)/C=C/c1ccc(Br)o1)Nc1cccc(S(=O)(=O)N2CCOCC2)c1 | 4 | -2 | -1.0 | -4 | 2 | 4.6 | 0.66 | i | -0.9
CCOc1ncccc1C(=O)Nc1ccc(-c2ccc3nnc(C)n3n2)cc1 | 44* | 3 | 1.8 | 14 | 8 | -4.3 | 0.71 | i | -106
CCn1c2ccccc2c2cc(NC(=O)COC(=O)c3ccccc3O)ccc21 | 1 | 2 | 2.1 | 0 | 0 | -1.6 | 0.67 | i | -3.9
COc1ccc(C(=O)Oc2ccc(/C=N/O)cc2)cc1 | 3 | 91* | 1.4 | -26* | -9.1* | -0.6* | . | . | .
COCCCn1c(=O)c2ccccc2n(Cc2ccccc2)c1=O | 7 | 5 | 2.9 | -11 | -17 | -3.5 | 0.62 | i | -1.9
Clc1ccc(CNc2ccccn2)cc1 | 0 | . | 3.7 | -5 | 5 | -1.7 | 0.67 | i | 1.3
Cc1c(NC(=S)SCc2ccccc2)c(=O)n(-c2ccccc2)n1C | 7 | -9 | 0.8 | 0 | 8 | -1.6 | 0.68 | i | 2.4
Cn1c(=O)c2c(nc(-c3ccccc3)n2C)n(Cc2ccccc2)c1=O | 2 | -6 | 1.9 | . | . | . | 0.67 | . | -48
CC1(C(=O)NS(=O)(=O)c2ccc(F)cc2F)CCN1C(=O)Cc1cc(F)ccc1F (configuration not stated) | . | . | 0.9 | 16 | 18 | -0.1 | . | i | .
O=C(O)c1cccc(S(=O)(=O)Nc2ccccc2-c2ccccc2)c1 | 7 | -2 | -3.7 | -6 | -4 | 1.2 | 0.68 | i | 5.8
Cc1ccc(OCCCSc2n[nH]c(N)n2)cc1 | 3 | 2 | 0.2 | 3 | 1 | -1.1 | 0.65 | . | 3.3
CCOC(=O)COc1ccccc1/C=N\NC(=O)c1cc2c(ccc3ccccc32)o1 | 18 | -7 | -0.5 | -12 | 10 | 19 | . | i | .
CCC(C)(C)C1CCC2(CC1)NC(=O)N(CC(=O)N(C)CC(=O)Nc1ccccc1C(F)(F)F)C2=O (configuration not stated) | -4 | -7 | 1.4 | 22 | 18 | 2.0 | 0.71 | i | 4.5
CCS(=O)(=O)c1ccc(C(=O)NC2CC2)c(Cl)c1Cl | -5 | -14 | -2.6 | 23 | 15 | 0.8 | 0.71 | i | -0.3
CC1CCC(NS(=O)(=O)c2ccc(Cl)s2)CC1 (configuration not stated) | -2 | . | -0.3 | -17 | -29 | 1.5 | 0.62 | i | -2.0
COc1cccc(NC(=O)CN(c2ccc3c(c2)OCO3)S(C)(=O)=O)c1 | -4 | -7 | -1.1 | 10 | 5 | -1.4 | 0.68 | . | 0.8
COc1cc(C(=O)Nc2nnc(C3CC3)s2)ccc1OCc1c(C)noc1C | -2 | 3 | 0.9 | 4 | 2 | 2.6 | 0.69 | i | 1.3
Cc1ccc(C)c(S(=O)(=O)Nc2ccc(S(=O)(=O)Nc3ncccn3)cc2)c1 | -1 | 0 | -1.1 | -6 | -10 | -4.8 | 0.71 | i | 6.7
NS(=O)(=O)c1cccc(NC(=O)COC(=O)/C=C/c2ccco2)c1 | 14 | 0 | -0.1 | 4 | 5 | -1.9 | 0.68 | i | 5.6
COc1ccc(NC(=O)Nc2nc(C)cc(C)n2)c(OC)c1 | -5 | -1 | 3.0 | 4 | 5 | -3.1 | 0.61 | i | 3.1
N#C/C(=C(/O)C(Cl)(Cl)Cl)c1nc2ccccc2[nH]1 | 4 | -9 | -3.8 | -4 | 11 | 14 | 0.67 | i | 8.5
CCOC(=O)C1CCCN(Cc2cc(=O)oc3cc(C)c(C)cc23)C1 (configuration not stated) | -1 | 9 | 2.3 | -32 | -40 | -8.9 | 0.67 | i | 1.8
CC(C)c1ccc(NC2CCCN(C(=O)CSc3nncn3C)C2)cc1 (configuration not stated) | 2 | 91* | 1.5 | 14 | 10 | 1.2 | 0.71 | i | 5.9
COc1ccc(CCNC(=O)COC(=O)/C=C/c2cc(OC)ccc2OC)cc1 | -12 | . | -5.6 | 1 | 5 | 2.0 | 0.7 | i | -102
COc1ccc(-c2cc(CCCC(=O)NCc3ccccn3)no2)cc1 | -18 | -9 | -3.5 | -8 | -13 | 0.2 | 0.75 | i | 3.2
O=C(CCl)Nc1cccc(Oc2cnccn2)c1 | 11 | -3 | -1.1 | 10 | 7 | 10 | 0.68 | i | 3.4

Structures above shown as hits in B2AR ag.
Compound	B2AR ag	ALR H2O2 inh	Ecoli rRNA inh	Ecoli rRNA inh OD600	Ecoli rRNA inh RFP	UCH37 inh
O=C(/C=C/c1ccc2c(c1)OCO2)NCCSCc1ccc(Cl)cc1Cl	96*	.	.	.	.	-2.2
CCOc1ncccc1C(=O)Nc1ccc(-c2ccc3nnc(C)n3n2)cc1	44*	3	14	8	-4.3	-106

Continuation.
SMILES | B2AR ag | ALR H2O2 inh | HNF4A DNA FP | Ecoli rRNA inh | Ecoli rRNA inh OD600 | Ecoli rRNA inh RFP | E coli growth | FGF22 binding | UCH37 inh
COc1ccc(Cc2[nH]n3c(=O)cc(C)nc3c2-c2ccccc2)cc1 | 2 | -24 | 0.5 | 12 | 10 | 1.3 | 0.68 | i | 1.1
O=C(NC1CCCCC1)C(c1ccccc1)N(C(=O)Cc1ccsc1)c1ccccc1 (configuration not stated) | 6 | -4 | 2.0 | 4 | -4 | -7.3 | 0.71 | i | 0.8
O=C(Nc1nnc(C2CC2)o1)c1ccc(S(=O)(=O)N2CCCCC2)cc1 | 5 | 64 | 2.8 | -38 | -66 | -4.4 | 0.71 | i | -1.8
Clc1ccc(/C=N/N2CCN(Cc3ccccc3Cl)CC2)cc1 | 1 | -1 | -0.2 | 6 | -11 | -6.2 | . | . | .
CCCCCCCCNS(=O)(=O)CCNCCCC | -2 | . | 2.2 | -11 | -9 | 8.1 | . | i | .
COc1ccc(NC(=O)c2sc(NC(=O)C3CC3)nc2C)cc1 | -9 | 2 | -1.3 | 0 | 10 | -2.8 | 0.7 | i | -5.6
Cc1cc(C)n2nc(C(=O)OCC(=O)N(CC(C)C)CC(C)C)nc2n1 | 1 | -8 | -2.3 | 6 | 12 | 1.1 | 0.7 | i | 2.9
COc1ccc(CNC(=O)c2cccc(N(C)C)c2)cc1 | 2 | 83* | -3.5 | . | . | . | 0.75 | . | -11

Only part of the results is shown (hit frequency here may not be typical).
